# Screening data (PubChem BioAssay)
# VDR inhibitor: inhibitors of human vitamin D receptor | AID 504847 | actives 0.93% (n = 400,000) | P11473 | VDR-SRC2-3 peptide fluorescence polarization, 2 h | Potency, µM, inactives show max response, negative = inhibition, actives largely listed as inhibitors; active = well fitted inhibition curve with a large enough effect; inconclusive = small, poorly fitted or top-dose-only effect, or another doubt; inactive = no such curve, though single readings can be large or run the other way; note: series mostly up to about 120 µM
# Target sequence (P11473 whole entry, looked up): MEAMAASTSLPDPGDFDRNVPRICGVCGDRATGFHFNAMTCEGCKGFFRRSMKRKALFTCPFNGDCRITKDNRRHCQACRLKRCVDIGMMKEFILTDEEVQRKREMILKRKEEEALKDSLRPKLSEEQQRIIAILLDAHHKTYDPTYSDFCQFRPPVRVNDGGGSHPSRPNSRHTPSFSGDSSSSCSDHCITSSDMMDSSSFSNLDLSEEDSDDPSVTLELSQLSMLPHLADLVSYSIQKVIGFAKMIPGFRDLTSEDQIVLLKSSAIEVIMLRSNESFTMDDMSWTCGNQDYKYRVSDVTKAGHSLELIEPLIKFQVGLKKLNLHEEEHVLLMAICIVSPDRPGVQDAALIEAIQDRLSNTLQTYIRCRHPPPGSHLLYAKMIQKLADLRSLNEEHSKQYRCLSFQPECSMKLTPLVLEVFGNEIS
#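 Two reagent solutions held at 4 deg C in the dark were dispensed, compounds pinned at 23 nl, and the mixture incubated 2 h at room temperature. Read-out: fluorescence polarization of VDR–SRC2-3 peptide binding.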
# Starred values were filed as active, the others as inactive; ? = inconclusive; & = joins results of further samples. % is set by controls: 0 for no effect and ±100 for the full control effect; potency is the fitted concentration of half-maximal effect.
Molecule,VDR inhibitor
Cc1noc(C)c1CSc1ccc2ccccc2n1,-11%
CCC(C)(CCNC(=O)Cc1ccccc1)c1ccccc1OC (stereo unspecified),1%
COc1ccc(C(=O)Nc2nnc(SCc3cc(=O)c4cccc(F)c4[nH]3)s2)cc1,-5%
NC(=O)[C@@H]1CCCN1Cc1nc(-c2ccccc2)no1,9%
CC1CCCN(c2ccc(N)cc2C(N)=O)C1 (stereo unspecified),-12%
COc1cc(/C=C/C(=O)c2ccc(C)c([N+](=O)[O-])c2)cc(OC)c1O,?
CCOc1ccc(CC2NCCc3cc(OCC)c(OCC)cc32)cc1OCC (stereo unspecified),?
Cc1cc(C)c(OCC(=O)NCC2COc3ccccc3O2)c(C)c1 (stereo unspecified),-10%
Cc1ccsc1CN(C)C(=O)CN1C(=O)NC2(CCCCC2C)C1=O (stereo unspecified),-4%
CCC(C)NC(=O)c1ccc(CNS(=O)(=O)c2ccc3c(c2)C(C)(C)C(=O)N3C)cc1 (stereo unspecified),-5%&6%

# More structures:
Molecule,VDR inhibitor
CCOc1ccc(N2C(=O)C3CC(C)=C(C)CC3C2=O)c([N+](=O)[O-])c1 (stereo unspecified),-4%
CCCCCC(=O)Nc1ccc(N2CCN(S(C)(=O)=O)CC2)cc1,-10%
COc1cc(C(CC(=O)Nc2cccc(C)n2)N2Cc3ccccc3C2=O)cc(OC)c1OC (stereo unspecified),10%
Cn1c(=O)[nH]c(=O)c2c1nc1n2CCS1,18%
Cc1nnc(SCC(=O)Nc2ccc(N3CCN(S(C)(=O)=O)CC3)cc2)o1,?
COc1cc(CN2CCC(C(N)=O)CC2)ccc1OCc1ccccc1,-12%
Cc1cc(C)c(Nc2ncccc2C(=O)O)c(C)c1,5%
COc1ccc(N(C(C)C(=O)N/N=C/c2cccnc2)S(C)(=O)=O)cc1 (stereo unspecified),14%
Cc1ccc2oc(=O)c3cnn(CC(=O)N4CCN(c5cccc(Cl)c5)CC4)c3c2c1,2%
CSc1cccc(N2CC(C(=O)NCCN3C(=O)S/C(=C\c4cccnc4)C3=O)CC2=O)c1 (stereo unspecified),-3%

# New compounds follow
Molecule,VDR inhibitor
Cc1ccc(NC(=O)[C@H](Cc2ccccc2)NC(=O)[C@@H]2Cc3ccccc3CN2)c(C)c1,-12%
COc1cc(/C=C/C(=O)Nc2cc(C(F)(F)F)ccc2Cl)cc(OC)c1OC,-4%
O=C(CCc1c[nH]c2ccccc12)OCC(=O)N1CCN(S(=O)(=O)c2ccccc2)CC1,-24%
Cc1cc2oc(=O)cc(COC(=O)c3n[nH]c4ccccc34)c2cc1C,-2%
CCOC(=O)C1=C(COC(=O)CCOc2ccc(C)cc2)NC(=O)NC1C (stereo unspecified),12%
C/C(=C(/CCO)SSC[C@@H]1CCCO1)N(C=O)Cc1cnc(C)nc1N,14µM*
CC(C)Nc1nnc(SCc2cc(=O)n3ccsc3n2)s1,4%
Cc1ccc(Nc2nc(N)nc(N)c2S(=O)(=O)c2ccccc2)cc1,1%
COc1ccc(NC(=O)Nc2nnc(Cc3ccc(F)cc3)s2)cc1,18%
CCN(CC)C(=O)CC(c1ccc2c(c1)OCO2)c1c(OC)cc(OC)c2ccc(=O)oc12 (stereo unspecified),7%&2%

# Going on with the list.
Molecule,VDR inhibitor
CC(C)CN(C(=O)c1cc2ccccc2o1)c1c(N)n(CC(C)C)c(=O)[nH]c1=O,-7%
COc1ccc(S(=O)(=O)NNC(=O)Nc2ccc(C)cc2)c(OC)c1,-9%
CN(C)c1cc[n+](CC(=O)Nc2cc(C(F)(F)F)ccc2Cl)cc1,-1%
O=C(Nc1ccccc1)N1CCCC(CNS(=O)(=O)Cc2ccccc2)C1 (stereo unspecified),4%
CCOC(=O)CC(NCc1ccc(OC)c(OCC)c1)c1ccc(C)cc1 (stereo unspecified),-11%
O=C(NCCc1nc2ccccc2[nH]1)/C(=C/c1ccco1)NC(=O)c1ccco1,-3%
O=C(Cn1cc([N+](=O)[O-])cn1)NCc1ccc(-n2cccn2)cc1,13%
O=C(Nc1ccc([N+](=O)[O-])cc1)c1cccc(S(=O)(=O)Nc2cccnc2)c1,1%
COc1ccc(CCNC(=O)Cn2nnc(C(=O)Nc3ccc(Br)cc3)c2N)cc1OC,-7%
O=C(NCCS(=O)(=O)N1CCN(c2ccccc2)CC1)c1ccco1,-1%

# The list continues.
Molecule,VDR inhibitor
COc1ccc(NC(=O)C(=O)NCCCO)cc1Cl,10%
CC(=O)Nc1ccc(S(=O)(=O)NC2CCS(=O)(=O)C2)cc1Cl (stereo unspecified),-27%
CC(=O)Nc1ccc(NC(=O)CCn2c(=S)oc3ccccc32)cc1,10%
Cc1ccc2c(c1)cc1c(=O)n(CC(=O)NC3CCCCC3)nc(C)n12,16%
Cc1cc(C(=O)N2CCC(C(=O)O)CC2)c(C(F)(F)F)o1,4%
COCC(=O)Nc1ccccc1C(=O)Nc1ccc(OC)cc1,10%
Cc1ccc(S(=O)(=O)NNC(=O)c2cccc(O)c2)cc1,-8%
Cc1ccc(-n2nc3c(N4CCC(C(=O)NC(C)C)CC4)nnc(C)c3c2C)cc1,0%
O=C(CCSc1nc(-c2ccco2)cc(C(F)(F)F)n1)NCC1CCCO1 (stereo unspecified),-11%
C=CCNC(=O)C(C#N)c1nc2ccccc2nc1N1CCN(Cc2ccccc2)CC1 (stereo unspecified),19%

# Next section.
Molecule,VDR inhibitor
CCOc1cc(/C=N/NC(=O)c2cccnc2)ccc1OCC(=O)N1CCOCC1,-7%
Cc1ccc(/C=N/Nc2cc(C)nc(NCc3ccccc3)n2)cc1,-12%
Cn1nnnc1SCCCNCc1cccc(OCc2ccccc2)c1,6%
CCN(CC)S(=O)(=O)c1cc(C(=O)Nc2ccccc2[N+](=O)[O-])ccc1Cl,-12%
Nc1ccc(SCC(=O)Nc2cccc([N+](=O)[O-])c2)cc1,-5%
O=C(O)CSc1ccc(S(=O)(=O)N2CCCC2)cn1,11%
CC(=O)N1CCN(c2ccc(NC(=O)c3cccc(Cl)c3Cl)cc2)CC1,-12%
CCCOc1ccc(-c2csc3ncn(Cc4ccc(C(=O)O)cc4)c(=O)c23)cc1,-24%
CCN1CCN(Cc2c(O)ccc3c(=O)c(Oc4ccccc4C(C)C)c(C(F)(F)F)oc23)CC1,11%
CC(C)c1ccc(/C=c2\sc3nc(-c4ccncc4)nn3c2=O)cc1,22µM*

# The list continues.
Molecule,VDR inhibitor
Cc1ccccc1Cn1c(SCc2ccc(C(=O)NCCc3ccccc3)cc2)nc2ccncc21,-20%
CC(C)c1ccc(NC(=O)CSc2nc3ccccc3nc2Cc2ccccc2)cc1,11%
CCCN1C(=O)c2ccccc2NC1c1ccc(Cl)c(Cl)c1 (stereo unspecified),?
Cc1ccc(OCC(=O)NCCCNC(=O)c2cccnc2)cc1C,-3%
CC[C@H]1C=C[C@@H](C(C(=O)OC)C(=O)OC)CN1C(C)=O,79µM*
CCOc1ccc(Nc2nc3c(c(=O)[nH]2)CCCC3)cc1,0%
Cc1cc(C)cc(NC(c2cccc(Cl)c2)c2nnc(-c3ccccc3)o2)c1 (stereo unspecified),0%
Cc1ccc(C)c(N2CCN(CCCNC(=O)c3cnn(-c4cccc(Cl)c4)c3C3CCN(C(=O)OC(C)(C)C)CC3)CC2)c1,13%
Cc1cc(NCCCn2ccnc2)n2ncc(-c3ccccc3)c2n1,-11%
COc1cc2c(cc1OC)C(COc1ccc(F)cc1)N(C(=O)c1ccccc1F)CC2 (stereo unspecified),-4%

# The last five entries of the part before are carried over, then new ones follow:
Molecule,VDR inhibitor
CCOc1ccc(Nc2nc3c(c(=O)[nH]2)CCCC3)cc1,0%
Cc1cc(C)cc(NC(c2cccc(Cl)c2)c2nnc(-c3ccccc3)o2)c1 (stereo unspecified),0%
Cc1ccc(C)c(N2CCN(CCCNC(=O)c3cnn(-c4cccc(Cl)c4)c3C3CCN(C(=O)OC(C)(C)C)CC3)CC2)c1,13%
Cc1cc(NCCCn2ccnc2)n2ncc(-c3ccccc3)c2n1,-11%
COc1cc2c(cc1OC)C(COc1ccc(F)cc1)N(C(=O)c1ccccc1F)CC2 (stereo unspecified),-4%
O=c1cc(-c2c(F)c(F)c(F)c(F)c2F)oc2ccccc12,-1%
Cc1cc(=O)oc(C)c1C(=O)O,-3%
CSc1cccc(NC(=O)CC2Oc3ccccc3NC2=O)c1 (stereo unspecified),-10%
O=C(CC1CCCCC1)Nc1nc2ccccc2s1,11%
Nc1ccc([N+](=O)[O-])cc1C(=O)NNC(=O)c1ccco1,-21%
Cc1c(Cl)cccc1NC(=S)NCCc1ccc(S(N)(=O)=O)cc1,-10%
CCCN(CC(=O)Nc1ccccc1C)C(=O)c1ccc(S(=O)(=O)N2CCCCC2)cc1,10%
O=C(NC(Cc1ccccc1)C(=O)NCCc1ccccn1)c1cccs1 (stereo unspecified),20%
Clc1ccccc1CSc1ncccn1,9%
COc1ccc(NC(=O)CN(C)C(=O)Cc2coc3cc(C)c(C)cc23)cc1,-8%

# Three of these compounds, set out differently:
VDR inhibitor,smiles
-12%,Cc1ccc(/C=N/Nc2cc(C)nc(NCc3ccccc3)n2)cc1
?,COc1cc(/C=C/C(=O)c2ccc(C)c([N+](=O)[O-])c2)cc(OC)c1O
12%,CCOC(=O)C1=C(COC(=O)CCOc2ccc(C)cc2)NC(=O)NC1C (stereo unspecified)

# (cont.)
Molecule,VDR inhibitor
O=C(CNC(=O)c1cccs1)Nc1ccc2c(c1)OCCO2,-18%
COc1ccc(CCNC(=O)CC2SC(N)=NC2=O)cc1OC (stereo unspecified),?
CCN(CC(=O)Nc1ccccc1OC)C(=O)c1cc(-c2ccccc2)nn1-c1ccccc1,-6%
COC(=O)C1=C(N)OC2=C(C(=O)CC(C)(C)C2)C1c1ccccc1OC (stereo unspecified),2%
COc1ccc(CNc2oc(-c3cccc4ccccc34)nc2C#N)cc1,14%
Cc1ccccc1-c1ccc2ncnc(NCCN3CCOCC3)c2c1,50µM*
CCOC(=O)C1CCN(C(=O)CCCOc2ccccc2)CC1,-2%
COc1ccc(-c2csc(-c3cccs3)n2)c(OC)c1,-10%
COc1cc(C2NC(=O)NC(c3ccccc3)=C2C(C)=O)ccc1OCC#N (stereo unspecified),6%
CCN1CCN(C(=O)c2ccc(C)c(S(=O)(=O)Nc3cccc(C)c3)c2)CC1,14%

# VDR inhibitor, hit marks shown above.
Molecule,VDR inhibitor
C/C(=C(/CCO)SSC[C@@H]1CCCO1)N(C=O)Cc1cnc(C)nc1N,14µM*
CC(C)c1ccc(/C=c2\sc3nc(-c4ccncc4)nn3c2=O)cc1,22µM*
CC[C@H]1C=C[C@@H](C(C(=O)OC)C(=O)OC)CN1C(C)=O,79µM*
Cc1ccccc1-c1ccc2ncnc(NCCN3CCOCC3)c2c1,50µM*

# Remaining list, next part.
Molecule,VDR inhibitor
O=C(/C=C/Nc1cccc(C(F)(F)F)c1)c1ccc(Oc2ncccn2)cc1,12%
Cc1ccc(NC(=O)N2CCCCCC2)cc1,-15%
S=C1NC[C@H](c2ccccc2)N1CCCCC1CCCCC1,1%
O=C(Cn1c(=O)n(Cc2ccco2)c(=O)c2oc3ccccc3c21)Nc1ccc(F)cc1F,14%
CCC(C)c1ccccc1NC(=O)c1cc2cccc([N+](=O)[O-])c2[nH]1 (stereo unspecified),10%
O=C(Nc1ccc(-c2nc3ccccc3[nH]2)cc1)c1cccc(N2C(=O)CCC2=O)c1,-2%
Cn1c(C(=O)N2CCN(c3ccc(Cl)cc3)CC2)cc2c(=O)[nH]c3ccccc3c21,3%
CCCC(=O)Nc1ccccc1-c1nnc(SC)[nH]c1=O,-20%
CCN1C(=O)CC(C(=O)OC)=C1C,-12%
COc1ccccc1NNC(=O)C(O)(c1ccccc1OC)c1ccccc1OC,-2%

# Remaining list, next part
Molecule,VDR inhibitor
CCOC(=O)C(C(C)=O)C(c1ccc(OC)cc1)C(C(C)=O)C(=O)OCC (stereo unspecified),1%
CCn1cc(C(=O)NCCCN2CCCCCC2)c(=O)c2cc(S(=O)(=O)N3CCc4ccccc4C3)ccc21,8%
CC1CCCC(NC(=O)COC(=O)c2cccc(NS(=O)(=O)/C=C/c3ccccc3)c2)C1C (stereo unspecified),-13%
O=C(NCCCN=C1NS(=O)(=O)c2ccccc21)c1ccc(Cl)cc1,3%
COc1ccc(NC(=O)Cc2ccc(Cl)c(Cl)c2)cn1,-15%
O=C(NCC1CCCO1)c1ccc(COc2ccc(Cl)cc2)cc1 (stereo unspecified),-16%
CN(C)C(CNC(=S)Nc1cccc(Cl)c1)c1cccnc1 (stereo unspecified),6%
CC1C(=O)C(C)C(c2cccc(Br)c2)NC1c1cccc(Br)c1 (stereo unspecified),-13%
CN(C)S(=O)(=O)n1cc(/C=C(\NC(=O)c2ccccc2)C(=O)N2CCCC2)c2ccccc21,-1%
O=C(CC(Cc1ccccc1)C(=O)O)Nc1cccc(C(F)(F)F)c1 (stereo unspecified),-22%

# Remaining list, next part.
Molecule,VDR inhibitor
Cc1ccccc1CN1CCc2nc(Nc3ccc4c(c3)OCCO4)ncc2C1,9%
Cc1cccc(OCC(=O)N(C)c2c(N)n(Cc3ccccc3)c(=O)[nH]c2=O)c1C,-5%
CN(Cc1ccccn1)Cc1nc(COc2ccccc2)no1,8%
O=C(NCc1nc2ccccc2[nH]1)C1=C[C@H](c2coc3ccccc3c2=O)C[C@H](OCc2ccc(CO)cc2)O1,-16%
O=C(CSc1nc(-c2ccccc2)nn1C(=O)c1ccccc1)Nc1cccc([N+](=O)[O-])c1,-10%
O=C(C1CCCCC1)N(Cc1ccccc1)c1ccccn1,-12%
CCCCN1CCC2C=CCC(C(=O)O)C2C1=O (stereo unspecified),-21%
Cc1cc(C(=O)OCC(=O)c2cccs2)ccc1[N+](=O)[O-],11%

# A portion of the library. The share of hits here may be higher or lower than overall.
